# MLL AF4-AF9 inh: blocks AF4 peptide binding to human AF9; P42568; AlphaScreen, biotin-AF4 peptide binding to FLAG-AF9; inhibition, % at 10 µM; actives 0.47% (n = 350,000); AID 651704;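 active means every replicate reaching a set inhibition limit, whatever the replicate mean, cut at about 25% in these data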;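 further: 0% = plate neutral control median and 100% = total signal loss; the record names both 10 and 1 µM as test concentration; the first replicate is given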
# Target sequence (P42568 whole entry, looked up): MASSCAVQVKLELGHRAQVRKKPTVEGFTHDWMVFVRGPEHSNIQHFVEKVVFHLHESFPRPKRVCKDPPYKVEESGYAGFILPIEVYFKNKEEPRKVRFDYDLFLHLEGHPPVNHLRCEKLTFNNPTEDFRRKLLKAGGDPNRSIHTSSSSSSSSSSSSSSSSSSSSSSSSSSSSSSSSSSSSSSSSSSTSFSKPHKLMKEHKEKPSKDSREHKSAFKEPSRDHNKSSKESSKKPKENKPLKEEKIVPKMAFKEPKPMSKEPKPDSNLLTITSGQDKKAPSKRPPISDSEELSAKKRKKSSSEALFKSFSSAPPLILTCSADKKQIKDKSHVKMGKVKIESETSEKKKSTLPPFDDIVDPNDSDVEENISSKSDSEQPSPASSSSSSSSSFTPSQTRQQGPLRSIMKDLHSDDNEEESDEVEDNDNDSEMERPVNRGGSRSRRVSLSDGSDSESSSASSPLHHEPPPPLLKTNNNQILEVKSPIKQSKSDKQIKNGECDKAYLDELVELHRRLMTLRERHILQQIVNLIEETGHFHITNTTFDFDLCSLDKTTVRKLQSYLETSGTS
# FGF22 binding: shifts melting point of recombinant human FGF22; recombinant FGF22 thermal shift, SYPRO orange fluorescence; percent of sucrose octasulfate shift, DMSO zero; calls only at 9.99 µM; actives 1.5% (n = 340,000); AID 651658;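 active means melting point raised past a set limit in the mean and every replicate; three in four hits are not shown here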
# Target sequence (Q9HCT0 whole entry, looked up): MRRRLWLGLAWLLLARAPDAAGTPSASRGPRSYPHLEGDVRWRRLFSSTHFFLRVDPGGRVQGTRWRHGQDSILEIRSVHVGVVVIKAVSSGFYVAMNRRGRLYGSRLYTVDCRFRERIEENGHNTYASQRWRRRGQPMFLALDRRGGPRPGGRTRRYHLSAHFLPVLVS
# UCH37 DUB inh: blocks the human deubiquitinase UCH37; Q9Y5K5; purified proteasome/UCH37, Ub-AMC cleavage fluorescence; inhibition, % (no concentration beside the values); actives 0.33% (n = 330,000);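 active means mean of two replicates above 20%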;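 further: 0% = compound-free wells with enzyme and 100% = wells lacking proteasome; stock transfer was 100 nL into about 20 µL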
# Target sequence (Q9Y5K5 whole entry, looked up): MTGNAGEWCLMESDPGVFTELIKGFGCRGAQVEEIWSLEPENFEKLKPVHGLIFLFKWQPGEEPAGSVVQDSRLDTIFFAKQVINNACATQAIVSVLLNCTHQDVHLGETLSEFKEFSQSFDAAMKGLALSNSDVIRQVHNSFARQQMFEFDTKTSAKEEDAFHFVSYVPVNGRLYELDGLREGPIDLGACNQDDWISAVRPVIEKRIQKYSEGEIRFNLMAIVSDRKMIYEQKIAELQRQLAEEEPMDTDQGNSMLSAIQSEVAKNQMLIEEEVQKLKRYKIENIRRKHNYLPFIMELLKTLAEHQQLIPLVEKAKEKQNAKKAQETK
#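 Schedule: 30 min plus 25 min, room temperature / Material: human UCH37 within purified proteasomes / Technique: AMC fluorescence intensity at 355/460 nm / Buffer or medium: pH 7.4 Tris-HCl (50 mM) with ovalbumin, ATP-MgCl2, DTT / Controls: wells without proteasome as full block, compound-free enzyme plus substrate as uninhibited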
# Beta apoptosis: blocks beta cell apoptosis; INS-1E cytokine-induced death, ATP luminescence, 48 h; percent of positive-control rescue, neutral wells zero; protection from apoptosis, % (concentration not given with the values); actives 0.8% (n = 300,000); AID 435005;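 active means all replicates at 75% or more, or half of them and the mean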;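 further: 0% = cytokine-treated negative control wells and 100% = positive control rescue; higher means more ATP so stronger rescue from cytokine killing; wells of about 40 µL received 100 nL stock; the first replicate is given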
# E coli growth: E. coli growth inhibition; Escherichia coli growth, OD600, 23 h; active compounds read low; OD600 absorbance (concentration not given with the values); actives 0.21% (n = 330,000);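 active means OD600 absorbance below the run mean of sample wells minus 3.6 SD, in any replicate, cut at about 0.56 in these data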;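 further: stock transfer was 300 nL into about 60 µL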
# rRNA inh HTS: inhibits bacterial ribosomal RNA function over humanized ribosomes; E. coli WT GFP vs humanized-ribosome RFP mutants, fluorescence, 24 h; active compounds read low; DMSO median 0, no signal -100; GFP signal change (wild-type ribosome), % (no concentration beside the values); actives 1.6% (n = 350,000); AID 720706;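 active means significant combined selectivity score with lowered wild-type GFP, culture density cut under 30%, mutant RFP and density less affected; inactive means any of these conditions unmet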; further: one replicate is shown; some compounds called inactive have numbers as strong as hits
# A1 inh: inhibitors of the anti-apoptotic protein A1, read as caspase activation. MEF A1-2A-BIM cells, Caspase-Glo 3/7 luminescence, 3 h; percent of clofoctol response, vehicle zero. caspase activation, % (test concentration not listed). actives 0.066% (n = 330,000). AID 2462;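 active means over half of replicate activation scores above 10%, or exactly half above 10 with the replicate mean above 10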;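 further: wells of about 30 µL received 50 nL stock; many hits fall short of the cut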
# T cruzi repl: T. cruzi replication inhibition. T. cruzi beta-gal in NIH3T3, luminescence, 90 h. inhibition, % (no concentration beside the values). actives 1.4% (n = 300,000). AID 1885;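 active means mean inhibition across valid replicates above about 55%, limit read from the data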;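 further: signal also drops with host cell toxicity which is not excluded here; 0% = plate median of DMSO wells and 100% = zero luminescence signal; higher percent means less beta-gal luminescence so fewer parasites; stock transfer was 50 nL into about 50 µL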
# rRNA inh HTS OD600: second read-out of rRNA inh HTS, no call of its own (marks repeat the call); OD600 change, %; measured here: OD600 growth;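 optical density of the mix in the first replicate; 0 = DMSO median and -100 = no signal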
# rRNA inh HTS RFP: further read-out of rRNA inh HTS, marked with its call; RFP signal change, %; measured here: RFP humanized mutant strains;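 first replicate; 0 = DMSO median and -100 = no signal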
# * = called active by the depositor; i = inactive; . = no result given. Not all compounds are listed, so the mix of outcomes need not match the whole.
SMILES,MLL AF4-AF9 inh,FGF22 binding,UCH37 DUB inh,Beta apoptosis,E coli growth,rRNA inh HTS,rRNA inh HTS OD600,rRNA inh HTS RFP,A1 inh,T cruzi repl
CCCc1ncc(CN2CCC(C(=O)Nc3cccc(-c4cscn4)c3)CC2)cn1,-3.8,i,1.8,0.9,0.655,8.8,7.9,0.8,1.1,-3.1
O=C(CSc1nnc(-c2ccccc2)n1Cc1ccco1)Nc1ccc(S(=O)(=O)N2CCCC2)cc1,5.6,i,2.4,-1.1,0.72,.,.,.,-0.9,16.5
CC1CN(C(=O)c2cccc(COc3ccc(Br)cc3)c2)CC(C)O1 (stereo not given),-3.0,i,4.3,.,0.665,-38.9,-39.4,-7.6,0.6,12.0
Cn1c(SCc2ccccc2)nnc1-c1ccc2c(c1)OCO2,.,.,3.9,0.6,0.739,.,.,.,-0.5,-12.3
CC(C)(C)NC(=O)/C=C/c1cccc(C(F)(F)F)c1,.,.,1.8,6.8,.,.,.,.,-0.3,2.9
COc1cc(C2/C(=C(\O)c3ccc4c(c3)CC(C)O4)C(=O)C(=O)N2CCCn2ccnc2)cc(OC)c1OC (stereo not given),1.6,i,7.1,-5.6,0.676,11.4,19.1,-1.4,-0.5,-21.2
CCOC(=O)c1c(C)[nH]c(C(=O)/C(C#N)=C/c2ccc(OC)c(OC)c2)c1C,1.8,i,1.0,6.3,0.65,7.7,-3.2,8.3,-0.5,-3.4
CCOC(=O)c1cnc2c(C(F)(F)F)cccc2c1NCCCN1CCOCC1,1.0,i,7.3,10.5,0.695,-26.6,-16.1,0.9,1.3,-11.1
c1ccc(-c2csc(-c3ccc(-c4csnn4)cc3)n2)cc1,-1.8,i,-0.7,9.1,0.676,-0.6,2.4,1.5,-0.5,-0.2
N/C(Cc1nc(-c2ccc(F)cc2)cs1)=N\O,0.3,i,.,-5.4,.,-8.5,3.4,6.0,-0.2,43.9
Cc1ccc2cccc(OCC(=O)NCc3ccco3)c2n1,.,.,0.1,-4.1,0.655,.,.,.,-0.5,2.8
CCOc1ccc2nc(SC(C)C(N)=O)[nH]c2c1 (stereo not given),.,.,6.1,.,0.729,.,.,.,0.5,-0.3
CCSc1ncc(C)cc1[N+](=O)[O-],-1.8,i,1.6,-0.3,0.668,20.5,17.8,-4.1,0.0,-41.2
CCc1nc(SCc2cccnc2)c2c(=O)n(C)c(=O)n(C)c2n1,-10.2,i,.,5.9,.,-2.2,-13.8,0.6,-1.4,9.5
O=C(NCCc1ccccc1)C1CCN(Cc2ccccc2F)CC1,.,.,0.5,-1.9,0.665,.,.,.,-0.8,-4.8
COc1ccc(/C(C)=N/NC(=O)CNC(=O)C2COc3ccccc3O2)c(OC)c1 (stereo not given),.,i,.,-3.1,.,-6.2,-1.1,0.5,0.3,6.4
COc1ccc(F)c(CN2CCC(n3nccc3NC(=O)CCCc3ccccc3)CC2)c1,2.2,i,0.0,1.4,0.707,1.9,-17.4,3.3,0.1,-5.9
O=C(COC(=O)c1cc[n+]([O-])cc1)Nc1cc([N+](=O)[O-])ccc1Cl,-5.9,i,1.6,-1.9,0.688,4.9,12.8,1.0,-0.4,-2.9
CC(C)c1onc(C(=O)NCc2ccc(F)cc2)c1[N+](=O)[O-],.,.,1.9,-5.1,0.637,.,.,.,0.2,6.8
CC(=O)c1cccc(CN2CCc3ccc(NC(=O)C4CCCO4)cc3C2)c1 (stereo not given),0.1,i,0.5,-6.4,0.68,11.1,7.8,-0.8,-0.9,2.8
CCN(CC)S(=O)(=O)c1ccc(Cl)c(NC(=O)c2ccccc2C)c1,.,.,0.3,-10.7,0.78,.,.,.,0.0,21.5
O=C(Nc1ccc(N2CCCCC2)c(Cl)c1)c1cccnc1,.,.,2.4,-0.4,0.686,.,.,.,-3.3,-7.0
COC(=O)c1ccc(C2c3c(oc4ccc(F)cc4c3=O)C(=O)N2CCO)cc1 (stereo not given),.,.,1.4,-6.4,0.766,.,.,.,-0.1,-18.1
COc1cc(OC)c(N2CC(C(=O)Nc3cccc(C(=O)NC4CC4)c3)CC2=O)cc1Cl (stereo not given),-6.1,i,1.6,.,0.616,3.9,5.2,-1.3,.,.
CS(=O)(=O)N1CCc2nc(-c3ccccc3)sc2C1,-1.0,i,4.0,0.4,0.652,0.2,1.5,0.4,-2.1,-10.5
NC(=S)NC1CC2C=CC1C2 (stereo not given),0.0,i,3.9,-4.1,0.63,.,.,.,1.3,-1.1
COc1cc(C2/C(=C(/O)c3ccc(OCC(C)C)cc3)C(=O)C(=O)N2CCN(C)C)ccc1O (stereo not given),-5.1,i,5.1,-10.6,0.666,1.8,-1.3,-0.8,0.0,-3.4
Cc1ccc2c(c1)N(Cc1cccc(Cl)c1)C(=O)c1cccnc1O2,-3.2,i,2.2,-1.3,0.735,-24.2,-31.9,-4.6,1.2,10.6
CCn1c2ccc(C)cc2c2nnc(SCCN3CCCCC3)nc21,2.9,i,5.1,7.2,0.685,-2.6,0.2,-0.1,-0.2,27.3
O=C(C[n+]1cc(-c2ccccc2)n2c1CCC2)Nc1nc(-c2ccccc2)cs1,.,.,0.9,-1.3,0.66,.,.,.,-0.2,-21.1
Clc1cccc(Cl)c1C1Nc2cccc3cccc(c23)N1,4.4,i,.,6.1,.,-10.4,22.7,-2.5,1.6,7.1
CCN(CC)C(=O)[C@H]1C[C@H](CC(=O)NCCC2=CCCCC2)C(=O)N2CCc3c([nH]c4ccc(Cl)cc34)[C@]12C,0.0,i,1.8,.,0.671,30.5,11.1,3.4,.,.
c1cn(C23CC4CC(CC(C4)C2)C3)cn1,.,.,1.1,1.5,0.722,.,.,.,-0.4,4.0
COc1ccc(OC)c(C(c2c(O)nc(SC)[nH]c2=O)c2c(O)nc(SC)[nH]c2=O)c1,-22.8,i,1.0,0.8,0.667,11.4,8.6,-2.0,0.8,-4.7
CCOc1ccc(C(=O)Nc2cc(C)c3c(=O)oc4ccccc4c3n2)cc1,-3.5,i,-4.0,-3.4,0.675,0.8,1.4,-4.5,-0.8,-6.8
C=CCC[C@H](Cc1ccc(F)cc1)C(=O)OC[C@H](Cc1c[nH]c2ccccc12)NC(=O)[C@H](CC=C)CC(=O)N[C@H](CO)Cc1ccccc1,-3.7,i,0.8,8.2,.,10.6,2.5,-1.0,2.2,.
CC1NC(C)(C)Cc2c1ccc1ccccc21 (stereo not given),-13.3,i,1.3,-0.1,0.689,5.8,0.9,9.2,0.5,-12.5
COc1ccc(C(=O)N=c2sc3c(C)ccc(OC)c3n2C)cc1,5.8,i,-48.9,5.6,0.817,-5.8,-10.2,-6.8,.,8.1
CN(C)S(=O)(=O)n1cc(/C=C(\NC(=O)c2ccccc2F)C(=O)NCCCn2ccnc2)c2ccccc21,13.3,i,3.2,.,0.718,-0.7,-8.7,-1.4,.,0.3
CS(=O)(=O)c1ccc(Cl)c(NC(=O)CSc2nncn2-c2ccccc2)c1,1.6,.,0.4,.,0.698,-22.1*,-6.1*,-3.3*,-0.2,8.1
O=C1OCC(CC2=C(O)C(=O)OC2)=C1O,-4.8,i,0.5,.,0.682,12.2,10.1,2.1,.,.
Cc1ccc(S(=O)(=O)NC2c3cccc4cccc(c34)C2Sc2n[nH]c(N)n2)cc1 (stereo not given),0.7,i,.,-10.6,.,.,.,.,-0.1,7.1
COc1ccc(CCN2C(=O)CC(N3CCN(c4ccccn4)CC3)C2=O)cc1OC (stereo not given),.,.,4.8,-2.6,0.695,.,.,.,-0.4,-1.6
CCCNC(=O)COc1coc(CN2CCN(C(=O)c3ccco3)CC2)cc1=O,-0.7,.,1.1,-4.9,0.655,13.7,5.1,1.4,0.7,-3.7
O=C(OCc1ccc2c(c1)OCO2)c1cccc(S(=O)(=O)N2CCCCC2)c1,.,.,2.7,.,0.755,.,.,.,-0.4,-16.0

# Only rRNA inh HTS RFP, for some of the entries so far:
smiles | rRNA inh HTS RFP
COc1ccc(OC)c(C(c2c(O)nc(SC)[nH]c2=O)c2c(O)nc(SC)[nH]c2=O)c1 | -2.0
CCOc1ccc(C(=O)Nc2cc(C)c3c(=O)oc4ccccc4c3n2)cc1 | -4.5

# The results go on:
SMILES,MLL AF4-AF9 inh,FGF22 binding,UCH37 DUB inh,Beta apoptosis,E coli growth,rRNA inh HTS,rRNA inh HTS OD600,rRNA inh HTS RFP,A1 inh,T cruzi repl
Cc1c(Cl)cccc1NC(=O)N1CCN(C(=O)c2ccco2)CC1,-0.3,i,.,-1.9,.,-3.3,-2.2,2.2,0.7,2.6
COc1cccc(NS(=O)(=O)c2ccc3c(c2)NC(=O)CC(=O)N3)c1,1.6,i,0.6,-5.3,0.689,0.8,0.1,-0.9,1.5,-11.0
CCOC(=O)N1CCC(NC(=O)C(CC(C)C)NC(=O)C2CCCCC2)CC1 (stereo not given),.,.,1.7,.,0.761,.,.,.,0.2,-3.4
CCOC(=O)C1=C(c2ccc(O)cc2)NC(=O)NC1C (stereo not given),-0.6,i,1.1,.,0.662,-0.1,6.3,-0.3,-0.4,-12.3
CC1CCCN(C(=O)C2CCN(S(=O)(=O)c3cccc4cccnc34)CC2)C1 (stereo not given),5.7,i,3.9,9.2,0.75,-5.8,-3.4,2.3,-0.2,-4.1
CCN(CC)C(=O)C(=O)c1cc(C)n(-c2ccc(F)cc2)c1C,0.2,i,3.3,-8.7,0.702,3.2,4.1,0.6,0.3,-6.4
NC(=O)C1CCN(c2ccc(S(=O)(=O)N3CCCCC3)cn2)CC1,-0.8,i,-0.5,-16.0,0.674,-3.4,3.5,-1.3,0.9,0.6
CCOC(=O)/C(C#N)=C1/C=Cc2ccccc2N1CC,.,.,5.1,-0.8,0.784,.,.,.,-0.7,5.0
NC(=O)CN1CCOCCOCCN(CC(N)=O)CCOCCOCC1,.,.,0.7,0.3,0.714,.,.,.,1.3,-4.1
O=C(Cc1ccccc1)NS(=O)(=O)c1ccc(N=NN2CCOCC2)cc1,-1.4,i,7.5,-4.1,0.694,6.4,2.9,5.8,-0.2,3.8
CCC1Oc2ccc(C)cc2N(CC(=O)NCc2ccco2)C1=O (stereo not given),-0.6,i,3.8,7.1,0.67,13.7,1.1,0.2,1.3,3.5
O=C(Nc1ccccn1)c1ccc2c(c1)S(=O)(=O)c1ccccc1C2=O,-2.1,i,1.0,-6.5,0.801,9.2,17.1,3.0,-4.7,-6.8
CC(C)CC(=O)Nc1c2c(nn1-c1cccc(Cl)c1)CS(=O)(=O)C2,-2.0,i,1.4,-8.0,0.603,13.2,13.0,3.7,0.5,-3.6
Cc1cc(N2C(=O)CC(N3CCN(C(c4ccccc4)c4ccccc4)CC3)C2=O)no1 (stereo not given),.,.,-1.4,-12.2,0.702,.,.,.,0.1,2.1
O=C(N/N=C/c1cccc2ccccc12)c1n[nH]c2c1CCCC2,-0.9,i,.,2.5,.,8.1,11.7,-1.0,-0.7,-46.4
Cc1ccc(NC(=O)Nc2ccc(C(=O)N3CCOCC3)cc2)cc1,.,.,0.7,-4.4,0.628,.,.,.,.,0.4
Cc1[nH]n(-c2ccccc2)c(=O)c1-c1cccc(Cl)c1,.,.,4.4,.,0.685,.,.,.,2.0,-16.3
